HIV Env fusion: HIV envelope-mediated fusion inhibition. 1.1% of 360,000 active. inhibition, % at 12.3 µM. HeLa-JRFL Env/CEM21 cell fusion, luciferase;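 active = mean replicate inhibition score of at least 50 and every replicate individually at or above 50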;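 note: 0% = plate neutral controls and 100% = maraviroc near 300 nM; one replicate is shown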
Yeast UUG start: alters start codon recognition fidelity in yeast; S. cerevisiae UUG-firefly luciferase reporter, luminescence/redox ratio; activity score, % at 18.7 µM; 0.13% of 350,000 active; AID 602363;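 active = replicate mean at a twofold rise or more, about +100% in these data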;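 note: firefly luciferase made from a UUG start codon reports start codon fidelity; reporter light over untreated wells divided by growth signal over untreated wells; some hits fall short of that in this replicate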
The depositor's hits bear a star; [ ] = another dose, or the depositor's remark.

Values in the order: HIV Env fusion, Yeast UUG start
> C[C@H](CO)N1C[C@H](C)[C@@H](CN(C)C(=O)Nc2ccc(F)cc2)Oc2c(NC(=O)c3ccc(-c4nccs4)cc3)cccc2C1=O
    6[16.7 µM], 3
> C[C@H](CO)N1C[C@H](C)[C@@H](CN(C)C(=O)Nc2ccc(F)cc2)Oc2c(NS(=O)(=O)c3cccs3)cccc2C1=O
    8[16.7 µM], 19
> COc1ccc(CN(C)C[C@@H]2OCCCC[C@H](C)Oc3ccc(NC(=O)Nc4ccc(F)cc4)cc3C(=O)N([C@@H](C)CO)C[C@H]2C)cc1
    14[16.7 µM], 22
> CCCC#Cc1cnc2c(c1)C(=O)N([C@H](C)CO)C[C@@H](C)[C@H](CN(C)C(=O)Nc1cccc(F)c1)O2
    10[16.7 µM], 17
> CC(C)C#Cc1cnc2c(c1)C(=O)N([C@H](C)CO)C[C@H](C)[C@H](CN(C)C(=O)c1ccccn1)O2
    -9[16.7 µM], 5
> C[C@@H]1CN([C@H](C)CO)C(=O)c2cc(NC(=O)Nc3ccc(C(F)(F)F)cc3)ccc2O[C@@H](C)CCCCO[C@@H]1CN(C)C(=O)Cc1ccccc1
    -6[16.7 µM], -13
> C[C@@H]1CN([C@H](C)CO)C(=O)c2cc(N(C)C)ccc2O[C@@H](C)CCCCO[C@@H]1CN(C)CC1CCCCC1
    -5[16.7 µM], 23
> C[C@@H]1CN([C@H](C)CO)C(=O)c2cc(-c3cccc(F)c3)cnc2O[C@@H]1CN(C)Cc1ccncc1
    13[16.7 µM], -13
> C[C@@H]1CN([C@@H](C)CO)C(=O)c2cc(NC(=O)CCN3CCOCC3)ccc2O[C@@H]1CN(C)S(C)(=O)=O
    5[16.7 µM], -6
> COc1ccc(NC(=O)N[C@H]2CC[C@@H](CC(=O)NCc3ccccn3)O[C@@H]2CO)cc1
    -9[16.7 µM], -5
> C[C@@H]1CN([C@H](C)CO)C(=O)Cc2cc(NC(=O)Nc3ccc(F)cc3)ccc2O[C@H]1CN(C)C(=O)Nc1ccc(F)cc1
    -16[16.7 µM], -2
> C[C@@H]1CN([C@@H](C)CO)C(=O)c2cc(NS(=O)(=O)c3ccc(Cl)cc3)ccc2O[C@@H](C)CCCCO[C@H]1CN(C)C(=O)c1ccncc1
    -1[16.7 µM], 9
> C[C@H](CO)N1C[C@H](C)[C@@H](CN(C)C(=O)Nc2cccc3ccccc23)OCCCC[C@H](C)Oc2ccc(NC(=O)Nc3ccc(F)cc3)cc2C1=O
    21[16.7 µM], -1
> C[C@H](CO)N1C[C@H](C)[C@H](CN(C)Cc2ccc3c(c2)OCO3)OCCCC[C@H](C)Oc2ccc(NC(=O)c3ccccc3)cc2C1=O
    6[16.7 µM], -3
> C[C@@H]1CCCCO[C@@H](CN(C)C(=O)Nc2ccc3c(c2)OCO3)[C@H](C)CN([C@@H](C)CO)C(=O)c2cc(NC(=O)Cc3ccccc3)ccc2O1
    10[16.7 µM], -6
> O=C(C[C@@H]1C=C[C@H](NC(=O)NC2CCCC2)[C@@H](CO)O1)NCc1ccc(F)cc1
    1[16.7 µM], -16
> C[C@H]1CN([C@@H](C)CO)C(=O)c2cc(NC(=O)NC3CCCCC3)ccc2O[C@@H]1CN(C)Cc1ccccc1
    -11[16.7 µM], 6
> CCN(C[C@H]1N[C@@](C)(C(=O)OC)[C@H]2C(=O)N(C)C(=O)[C@@H]12)S(=O)(=O)c1ccccc1
    -9, -7
> C[C@@H]1CN([C@H](C)CO)C(=O)Cc2cc(NC(=O)Nc3cccc4ccccc34)ccc2O[C@H]1CN(C)S(=O)(=O)c1ccccc1
    -6[16.7 µM], -25
> Cc1ccc(S(=O)(=O)N[C@@H]2C=C[C@H](CC(=O)N3CCc4ccccc4C3)O[C@H]2CO)cc1
    -6[16.7 µM], -3
> CN(C)CC(=O)N[C@H]1C=C[C@H](CC(=O)NCc2ccc(Cl)cc2)O[C@@H]1CO
    12[16.7 µM], -17
> C[C@H]1CCCCO[C@H](CN(C)Cc2ccccc2)[C@@H](C)CN([C@@H](C)CO)C(=O)c2cc(NC(=O)c3ccccc3)ccc2O1
    28[16.7 µM], 8
> CC(C)NC(=O)N(C)C[C@@H]1OCCCC[C@H](C)Oc2ccc(NS(=O)(=O)c3ccccc3)cc2C(=O)N([C@H](C)CO)C[C@@H]1C
    -50[16.7 µM], -4
> C[C@@H]1CN([C@@H](C)CO)C(=O)c2cccc(NS(=O)(=O)c3cccs3)c2O[C@@H]1CN(C)S(=O)(=O)c1ccc(F)cc1
    7[16.7 µM], 3
> COCC(=O)N(C)C[C@H]1Oc2ncc(-c3cccc(OC)c3)cc2C(=O)N([C@H](C)CO)C[C@@H]1C
    -3[16.7 µM], 13
> COc1ccccc1NC(=O)N[C@H]1CC[C@@H](CCNC(=O)Cc2ccccn2)O[C@@H]1CO
    -13[16.7 µM], -12
> C[C@@H]1CN([C@@H](C)CO)C(=O)c2cc(NC(=O)Nc3cccc4ccccc34)ccc2O[C@H]1CN(C)C(=O)Nc1cccc2ccccc12
    7[16.7 µM], 5
> Cc1ccc(S(=O)(=O)Nc2ccc3c(c2)C(=O)N([C@H](C)CO)C[C@H](C)[C@H](CN(C)C(=O)CCC(F)(F)F)OCCCC[C@@H](C)O3)cc1
    1[16.7 µM], -3
> COc1ccc(NC(=O)N[C@H]2CC[C@@H](CCNC(=O)c3cc(Cl)cc(Cl)c3)O[C@H]2CO)cc1
    5[16.7 µM], 8
> COc1ccc(CN(C)C[C@H]2Oc3ccc(NC(=O)Nc4cccc5ccccc45)cc3CC(=O)N([C@@H](C)CO)C[C@H]2C)cc1
    0[16.7 µM], -5

Reprinted from the part before: 2 compounds, followed by the next part.
Values in the order: HIV Env fusion, Yeast UUG start
> COc1ccc(NC(=O)N[C@H]2CC[C@@H](CCNC(=O)c3cc(Cl)cc(Cl)c3)O[C@H]2CO)cc1
    5[16.7 µM], 8
> COc1ccc(CN(C)C[C@H]2Oc3ccc(NC(=O)Nc4cccc5ccccc45)cc3CC(=O)N([C@@H](C)CO)C[C@H]2C)cc1
    0[16.7 µM], -5
> COCC(=O)N(C)C[C@H]1Oc2cc(C#C[C@H](C)O)ccc2S(=O)(=O)N([C@@H](C)CO)C[C@H]1C
    0[16.7 µM], -6
> C[C@@H]1CCCCO[C@H](CN(C)C(=O)Nc2ccccc2)[C@@H](C)CN([C@H](C)CO)C(=O)c2cc(NS(=O)(=O)c3cccs3)ccc2O1
    -50[16.7 µM], 2
> Cc1noc(C)c1S(=O)(=O)Nc1cccc2c1O[C@@H](CN(C)CC1CC1)[C@@H](C)CN([C@@H](C)CO)C2=O
    2[16.7 µM], 7
> C[C@@H]1CCCCO[C@@H](CN(C)S(=O)(=O)c2cccs2)[C@H](C)CN([C@H](C)CO)C(=O)c2cc(NC(=O)CCC(F)(F)F)ccc2O1
    -25[16.7 µM], 13
> C[C@H](CO)N1C[C@H](C)[C@@H](CN(C)C(=O)Cc2ccccc2)OCCCC[C@H](C)Oc2ccc(NC(=O)CCCN(C)C)cc2C1=O
    18[16.7 µM], 6
> C[C@H](CO)N1C[C@H](C)[C@@H](CN(C)C(=O)C2CCC2)Oc2ncc(C#CC3(O)CCCC3)cc2C1=O
    17[16.7 µM], 7
> COc1ccc(S(=O)(=O)Nc2cccc3c2O[C@@H](CN(C)CC2CCCCC2)[C@@H](C)CN([C@@H](C)CO)C3=O)cc1
    -24[16.7 µM], -6
> O=C(Cc1ccccn1)NCC[C@@H]1CC[C@H](NS(=O)(=O)c2ccc(Cl)cc2)[C@@H](CO)O1
    5[16.7 µM], -3
> CNC[C@@H]1Oc2cc(-c3ccc(C(=O)N(C)C)cc3)ccc2S(=O)(=O)N([C@H](C)CO)C[C@H]1C
    1[16.7 µM], -7
> C[C@@H](NC(=O)C[C@H]1CC[C@H](NC(=O)C2CCC2)[C@@H](CO)O1)c1ccccc1
    -4[16.7 µM], -21
> COCC(=O)N(C)C[C@@H]1Oc2cc(C#CCN(C)C)ccc2S(=O)(=O)N([C@@H](C)CO)C[C@H]1C
    -8[16.7 µM], -8
> C[C@H](CO)N1C[C@H](C)[C@@H](CN(C)CC2CC2)Oc2ccc(NC(=O)Nc3ccc4c(c3)OCO4)cc2CC1=O
    -13[16.7 µM], -22
> C[C@@H]1CCCCO[C@@H](CN(C)S(=O)(=O)c2cccs2)[C@@H](C)CN([C@@H](C)CO)C(=O)c2cc(NC(=O)C3CCCCC3)ccc2O1
    24[16.7 µM], -14
> C[C@@H]1CCCCO[C@H](CN(C)C(=O)c2ccccc2)[C@@H](C)CN([C@@H](C)CO)C(=O)c2cc(NC(=O)C3CCCCC3)ccc2O1
    -7[16.7 µM], 7
> C[C@H]1CN([C@@H](C)CO)C(=O)c2cccc(NC(=O)C3CCCCC3)c2O[C@H]1CN(C)C(=O)NC1CCCCC1
    10[16.7 µM], 3
> CCCC#Cc1ccc2c(c1)O[C@H](CN(C)C(=O)c1cccnc1)[C@H](C)CN([C@@H](C)CO)S2(=O)=O
    -13[16.7 µM], 4
> C=CCN(Cc1ccccc1)C(=O)[C@H]1N(Cc2ccc(OC)cc2)C(=O)[C@@H]2[C@@H](C(=O)O)C3C=CC21O3 (some centres not stated)
    0[16.7 µM], -6
> C[C@H]1CN([C@@H](C)CO)C(=O)c2cccc(NC(=O)NC3CCCCC3)c2O[C@@H]1CN(C)Cc1ccc(C(F)(F)F)cc1
    10[16.7 µM], 7
> CN(C)Cc1cn(CC[C@@H]2CC[C@H](NS(=O)(=O)c3ccc(-c4ccccc4)cc3)[C@H](CO)O2)nn1
    13[16.7 µM], 1
> C[C@@H]1CN([C@H](C)CO)C(=O)c2cc(NC(=O)c3ccncc3)ccc2O[C@@H](C)CCCCO[C@H]1CN(C)C(=O)Nc1ccc2c(c1)OCO2
    -6[16.7 µM], 3
> CNC(=O)C[C@H]1CC[C@@H]2[C@@H](COc3ccc(NC(=O)c4ccccc4Cl)cc3C(=O)N2C)O1
    -10[16.7 µM], 1
> Cc1ccc(S(=O)(=O)N(C)C[C@H]2Oc3c(NC(=O)c4cnccn4)cccc3C(=O)N([C@H](C)CO)C[C@@H]2C)cc1
    2[16.7 µM], -15
> CN1C(=O)c2cc(NC(=O)NC3CCCC3)ccc2OC[C@@H]2O[C@H](CC(=O)NC3CCC3)CC[C@H]21
    -11[16.7 µM], 2
> C[C@H](CO)N1C[C@H](C)[C@H](CN(C)Cc2ccccc2)Oc2c(NC(=O)C3CCCCC3)cccc2C1=O
    8[16.7 µM], -9
> C[C@@H]1CN([C@@H](C)CO)C(=O)c2cccc(NC(=O)C3CCCCC3)c2O[C@H]1CN(C)S(=O)(=O)c1cccs1
    -31[16.7 µM], 4
> C/C=C/c1cnc2c(c1)C(=O)N([C@H](C)CO)C[C@@H](C)[C@@H](CN(C)C(=O)c1cccnc1)O2
    -26[16.7 µM], 21
> O=C(Nc1ccc(Cl)c(Cl)c1)N[C@H]1CC[C@H](CCn2cc(C3CC3)nn2)O[C@H]1CO
    7[16.7 µM], 15
> CNC[C@H]1OCCCC[C@@H](C)Oc2ccc(NC(=O)Nc3ccccc3)cc2C(=O)N([C@@H](C)CO)C[C@@H]1C
    -26[16.7 µM], 16
> Cc1ccc(S(=O)(=O)Nc2ccc3c(c2)CC(=O)N([C@@H](C)CO)C[C@@H](C)[C@@H](CN(C)C(=O)Nc2ccccc2)O3)cc1
    -93[16.7 µM], 11
> CCCNC(=O)N(C)C[C@@H]1Oc2cc(-c3cccnc3)ccc2S(=O)(=O)N([C@@H](C)CO)C[C@H]1C
    -2[16.7 µM], -10

Taken from above:
In Yeast UUG start, `Cc1noc(C)c1S(=O)(=O)Nc1cccc2c1O[C@@H](CN(C)CC1CC1)[C@@H](C)CN([C@@H](C)CO)C2=O` has the entry 7
In HIV Env fusion, `C[C@@H]1CCCCO[C@H](CN(C)C(=O)Nc2ccccc2)[C@@H](C)CN([C@H](C)CO)C(=O)c2cc(NS(=O)(=O)c3cccs3)ccc2O1` has the entry -50[16.7 µM]
In HIV Env fusion, `C[C@H]1CN([C@@H](C)CO)C(=O)c2cccc(NC(=O)NC3CCCCC3)c2O[C@@H]1CN(C)Cc1ccc(C(F)(F)F)cc1` has the entry 10[16.7 µM]
In HIV Env fusion, `C/C=C/c1cnc2c(c1)C(=O)N([C@H](C)CO)C[C@@H](C)[C@@H](CN(C)C(=O)c1cccnc1)O2` has the entry -26[16.7 µM]
In Yeast UUG start, `C[C@H](CO)N1C[C@H](C)[C@@H](CN(C)C(=O)Cc2ccccc2)OCCCC[C@H](C)Oc2ccc(NC(=O)CCCN(C)C)cc2C1=O` has the entry 6

New compounds follow
Values in the order: HIV Env fusion, Yeast UUG start
> CC(=O)N(C)C[C@@H]1Oc2cc(-c3cccnc3)ccc2S(=O)(=O)N([C@@H](C)CO)C[C@H]1C
    30[16.7 µM], -10
> C[C@@H]1CN([C@@H](C)CO)C(=O)c2cc(NC(=O)Nc3ccc(F)cc3)ccc2O[C@@H](C)CCCCO[C@@H]1CN(C)C(=O)CCCN(C)C
    6[16.7 µM], 11
> Cc1noc(C)c1NC(=O)Nc1ccc2c(c1)C(=O)N(C)[C@@H]1CC[C@H](CC(=O)N(C)C)O[C@H]1CO2
    -8[16.7 µM], -6
> N#C[C@H]1[C@H](c2ccc(C#CCC3CCCC3)cc2)[C@H](CO)N1C(=O)CN1CCOCC1
    8[16.7 µM], 10
> C[C@H]1CCCCO[C@@H](CN(C)C(=O)C2CCCCC2)[C@@H](C)CN([C@@H](C)CO)C(=O)c2cc(NC(=O)NC3CCCCC3)ccc2O1
    -39[16.7 µM], 2
> C[C@H]1CN([C@@H](C)CO)C(=O)c2cc(C#CCC3CCCC3)cnc2O[C@@H]1CN(C)S(=O)(=O)c1cccs1
    18[16.7 µM], -12
> C[C@H](CO)N1C[C@H](C)[C@@H](CN(C)Cc2cncnc2)Oc2ncc(C#CC(C)(C)O)cc2C1=O
    0[16.7 µM], 6
> COc1ccccc1NC(=O)N[C@@H]1CC[C@H](CCn2cc(-c3ccccc3)nn2)O[C@@H]1CO
    -2[16.7 µM], -1
> O=C(C[C@H]1CC[C@@H]2[C@H](COC[C@@H](O)CN2CCC(F)(F)F)O1)N1CCC(Cc2ccccc2)CC1
    3[16.7 µM], 10

Screens as filed in PubChem.

Only part of the results is shown, so the mix of outcomes need not match the whole.
